Compound activity from PubChem.
PrP 5UTR inh: inhibition of PrP 5' UTR reporter expression | AID 488862, 2010 | hit rate 0.35% among 340,000 | cell-based PrP 5' UTR mRNA reporter, plate reader | inhibition, % (test concentration not listed);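 active means every replicate at 50% or more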;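 further: 0 = median of the neutral control wells; tested in H4 reporter cells; numbers are from one replicate; inactives centre near -14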
Sa RN4220 lethal: growth inhibition of S. aureus RN4220, primary screen, OD600 | inhibition, % (test concentration not listed) | 16 h | hit rate 0.33% among 330,000;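 active means z-score of -3 or lower and OD600 up to 0.18 on both plates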;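 further: plate controls were untreated cells for no effect and reference antibiotic for full effect; stock transfer was 100 nL into about 80 µL; one replicate is shown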
Bead autofluor: compound fluorescence in toxin protease inhibitor counterscreen; compound autofluorescence counterscreen, microsphere flow cytometry; stronger effect = higher value; fluorescence intensity (concentration not given with the values); hit rate 3.1% among 360,000;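 active means at least 3 SD above the mean of all compounds, about 16000 in these data; inconclusive means too few beads counted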;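 further: 100 nL of 1 mM stock went into each well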
BJeLR viability: MLPCN primary cell-based screen for lethality selective to Ras in HRASV12 cells; BJeLR (HRASV12) viability, CellTiter-Glo ATP luminescence, 48 h; reference of the scale not given here; inhibition, % (no concentration beside the values); hit rate 0.17% among 300,000; AID 1554, 2009;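 active means replicate mean above 50%; inconclusive means above 50% but judged a plate artefact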;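 further: 50 nL library stock added to about 25 µL; numbers are from one replicate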
Mtb hypoxia rep: PubChem AID 1159583; M. tuberculosis hypoxia-regulated fluorescent reporter, fluorescence; fluorescence inhibition, % (concentration not given with the values); hit rate 0.1% among 300,000;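 active means 35 to 45% if threefold the growth effect, above 45% if 1.5-fold the growth effect; inactive means the rest, general growth blockers included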;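 further: wells of about 50 µL received 100 nL stock; 0% = vehicle wells and 100% = reference inhibitor wells; whole bacteria with a GFP reporter of the hypoxia response; strong numbers were not always called active; many hits fall short of the cut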
ugtP null kill: growth inhibition of ugtP-null S. aureus, primary screen, RN4220 ugtP deletion, OD600; 16 h; some inactives read as strong as hits; growth inhibition, % (no concentration beside the values); hit rate 0.54% among 330,000;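 active means z-score under -3 and OD600 up to 0.15 on both plates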;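 further: plate controls were untreated wells for no effect and antibiotic for full effect; wells of about 80 µL received 100 nL stock; the first replicate is given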
Mtb hypoxia rep growth: also measured in Mtb hypoxia rep; calls as there; growth inhibition, %; measured here: M. tuberculosis growth (absorbance);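 0% = vehicle and 100% = reference antibiotic; read after six days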
* = called active by the depositor; ? = inconclusive; nt = no result given.

Structure | Mtb hypoxia rep | BJeLR viability | Mtb hypoxia rep growth | Sa RN4220 lethal | ugtP null kill | Bead autofluor | PrP 5UTR inh
CCn1c(Cn2nnc(-c3ccccc3)n2)nnc1SCC(=O)Nc1ccccc1 | 5 | 4 | 6 | 5.1 | -6 | 7994 | -14
Cc1cc(=O)n(CNC(=O)c2ccccc2)c(=S)[nH]1 | -6 | 8 | -2 | 3.7 | 5 | 6741 | -24
CCOC(=O)c1sc(NC(=O)c2ccc3nc[nH]c3c2)nc1C | -14 | -2 | 7 | -1.3 | 3 | 4825 | -79
COc1ccc(Cn2c(O)cc(=O)[nH]c2=O)cc1 | 0 | -2 | 9 | 2.4 | 6 | 2895 | -23
COc1ccc(NC(=O)CCCSc2nc(-c3ccco3)cc(C(F)(F)F)n2)cc1OC | 11 | 11 | 2 | -0.5 | -4 | 2434 | -13
FC(F)(F)c1nnc2ccc(NCc3cccnc3)nn12 | 1 | 0 | -1 | 6.5 | 2 | 4478 | -62
COc1ccc(C(C#N)N2CCCCCC2)cc1OC (stereo unspecified) | nt | 6 | nt | 2.9 | 4 | 3963 | -5
Cc1noc(C)c1CSc1nc2ccccc2[nH]1 | nt | 0 | nt | 3.2 | 4 | 3751 | 9
O=C(Nc1cc(-c2ccccc2)sc1C(=O)O)c1cccc(F)c1 | nt | -2 | nt | nt | nt | 3762 | -11
Cc1cnc(C(=O)OCC(=O)NC2CCCCCC2)cn1 | 4 | -3 | 10 | 1.9 | -4 | 3626 | -51
COc1ccc(C2CC(=O)C=C(NCc3ccc4c(c3)OCO4)C2)cc1 (stereo unspecified) | 5 | 8 | 9 | 1.7 | 7 | 3915 | -21
Cc1ccc(S(=O)(=O)NCCC(=O)NC2CCCCCC2)cc1C | -12 | nt | 8 | 0.4 | -1 | 8449 | -8

Full records from above. Values in the order: Mtb hypoxia rep | BJeLR viability | Mtb hypoxia rep growth | Sa RN4220 lethal | ugtP null kill | Bead autofluor | PrP 5UTR inh
Cc1cnc(C(=O)OCC(=O)NC2CCCCCC2)cn1 in the list: 4 | -3 | 10 | 1.9 | -4 | 3626 | -51
Cc1ccc(S(=O)(=O)NCCC(=O)NC2CCCCCC2)cc1C in the list: -12 | nt | 8 | 0.4 | -1 | 8449 | -8
O=C(Nc1cc(-c2ccccc2)sc1C(=O)O)c1cccc(F)c1 in the list: nt | -2 | nt | nt | nt | 3762 | -11
Cc1noc(C)c1CSc1nc2ccccc2[nH]1 in the list: nt | 0 | nt | 3.2 | 4 | 3751 | 9

Additional structures.
Structure | Mtb hypoxia rep | BJeLR viability | Mtb hypoxia rep growth | Sa RN4220 lethal | ugtP null kill | Bead autofluor | PrP 5UTR inh
C=C1CCN(C(C(=O)OCc2ccc(C)cc2)C(C)C)S(=O)(=O)c2ccccc21 (stereo unspecified) | 12 | nt | 5 | 7.5 | 2 | nt | nt
O=C(CCc1c[nH]c2ccccc12)NCCc1ccc2c(c1)OCCO2 | 11 | -12 | 0 | 0.2 | 10 | 5285 | -12
O=C(CNC(=O)c1ccc(Cl)cc1Cl)NCC1CCCO1 (stereo unspecified) | -2 | -7 | 12 | 5.6 | 2 | 5894 | -17
Cc1ccc(O)c(C(=O)c2cc(C(=O)NCCC(C)C)c(=O)n(CCC(C)C)c2)c1 | -5 | -4 | 0 | 0.4 | -25 | 3711 | 5
Cc1ccccc1C(=O)NC(CC(C)C)C(=O)NCC(C)(C)N1CCOCC1 (stereo unspecified) | 11 | nt | 10 | 5.4 | 5 | 6422 | -15
Cn1c(=O)c2c(SCC(=O)N3CCCCC3)nc(-c3ccccc3F)nc2n(C)c1=O | 7 | 2 | 6 | 3.7 | 9 | 4924 | -4
COc1ccc(N2CC(C)Cn3c2nc2c3c(=O)n(CCN3CCOCC3)c(=O)n2C)cc1 (stereo unspecified) | 18 | 5 | 8 | -15 | -8 | 2737 | -13
O=S(=O)(NCc1csc(-c2cccnc2)n1)c1ccc2c(c1)OCCO2 | 4 | 3 | -1 | -16 | -5 | 3378 | -8
Cc1ccc(Cn2ccc(NC(=O)c3cc(C)on3)n2)cc1 | 8 | 3 | 8 | 5.3 | 0 | 9410 | -58
COc1ccccc1-c1cc(C(=O)NN=Cc2ccc(C)o2)c2ccccc2n1 | 12 | nt | 8 | -1.6 | 9 | nt | nt
N#C/C(=C\c1cccc(Cl)c1)C(=O)c1ccccc1 | nt | -1 | nt | nt | nt | 3448 | -8
CCC(C)NC(=O)c1c(N)n(/N=C/c2cccnc2)c2nc3ccccc3nc12 (stereo unspecified) | nt | 2 | nt | nt | nt | ? | -13
CCCNC(=O)C(Cc1cccc(C#N)c1)NC(=O)c1cccc([N+](=O)[O-])c1 (stereo unspecified) | 6 | nt | 8 | 8.1 | 7 | 3130 | 5
O=C(NCCOc1ccccc1)C(=O)c1c[nH]c2ccccc12 | 5 | -11 | 10 | 8.5 | 10 | 4588 | nt
O=C(CCCN1C(=O)C2CCCCN2C1=O)N1CCN(c2ccc([N+](=O)[O-])cc2)CC1 (stereo unspecified) | 10 | 8 | 7 | -15 | -1 | 2478 | -10
CCN(CC)c1ccc(NC(=O)C(C)C)cc1 | 5 | 9 | -4 | 2.6 | 4 | 10870 | -17
CCCCCN(C(=O)CCC(=O)OC(C)C(=O)Nc1cccc(C#N)c1)c1c(N)n(CCCC)c(=O)[nH]c1=O (stereo unspecified) | -3 | -5 | 9 | -0.1 | 3 | 6027 | -8
CC(CC(=O)Nc1ccc2c(c1)OCCO2)=NNC(=O)COc1ccc(C)cc1 | 9 | nt | 3 | 2.6 | 3 | nt | nt
COc1ccc(CCC(=O)NCC(=O)OCc2ccccc2)cc1 | -2 | -8 | -7 | 1.4 | 2 | 3968 | -21
CS(=O)(=O)N(CC(=O)N1CCCC1)c1ccc(Cl)cc1Cl | 7 | 3 | 4 | -0.9 | 19 | 2937 | -19
Cc1ccc(CSCc2ccc(C(=O)NCCCN3CCOCC3)o2)cc1 | 12 | 1 | 6 | 15 | 4 | 4538 | -14
CC(c1ccccn1)N(C)C(=O)c1ccc2nc(Cc3cccc(Cl)c3)oc2c1 (stereo unspecified) | 14 | -3 | 3 | -1.0 | -2 | 5502 | -72
COc1cc(C2CC(=O)N3CN(Cc4ccco4)CSC3=C2C#N)ccc1OCc1ccccc1 (stereo unspecified) | 0 | 4 | 7 | -13 | -11 | 6227 | -26
c1ccc2c(c1)CSc1ccccc1N2 | 10 | 0 | -2 | 2.7 | -2 | 3673 | nt
COc1ccc(C(CC(=O)N2CCCCC2)c2c(O)cc(OC)cc2OC)cc1 (stereo unspecified) | 9 | 2 | 9 | 4.2 | -6 | 3430 | -25
CCOC(=O)c1c(C)[nH]c(C)c1C(=O)COC(=O)/C=C/c1ccco1 | 1 | nt | 10 | 0.8 | -5 | ? | 0
CCNC(=S)NNC(=O)c1ccccn1 | -4 | -12 | 1 | 7.4 | 3 | 9906 | -25
CC(=O)NS(=O)(=O)c1ccc(NC(=O)/C=C/c2cn(-c3ccccc3)nc2-c2ccccc2)cc1 | -1 | 8 | -2 | 3.3 | 1 | 3925 | -11
O=C(Cn1c(=O)[nH]c2ccsc2c1=O)NC1CCCCCC1 | 6 | 6 | 4 | 5.3 | 2 | 23444* | -17
CC(C)n1c(C(O)c2ccccc2)nc2ccccc21 (stereo unspecified) | 9 | -11 | 7 | 9.4 | -3 | 9669 | -19
CCOC(=O)C1CCN(Cc2ccc(Cl)c(Cl)c2)CC1 | -5 | 3 | -5 | 4.9 | 4 | 10083 | -22
COc1ccc(C=NNC(=O)c2ccc(-n3cnnn3)cc2)cc1 | 8 | nt | 4 | 1.8 | 11 | nt | nt
CC1CCCCC1NC(=O)CSc1nnnn1-c1ccccc1 (stereo unspecified) | nt | -2 | nt | 2.4 | 3 | 3787 | -13
CCCOCn1cc(F)c(=O)[nH]c1=O | 11 | 9 | 13 | 3.4 | -3 | 9489 | -7
C=CCN(c1ccccc1C(=O)O)S(=O)(=O)c1ccc(NC(=O)OC)cc1 | 9 | 10 | 8 | 4.2 | -3 | 4351 | 3
CCOc1ccc(/C(O)=C2/C(=O)C(=O)N(CCOCCO)C2c2ccccn2)cc1 (stereo unspecified) | 2 | -9 | 3 | 0.2 | -1 | 22618* | -10
COc1ccc(CC(=O)OCC(=O)c2c(N)n(C)c(=O)n(C)c2=O)cc1OC | 3 | nt | -1 | 5.9 | 1 | 4039 | -8
O=c1c2ccccc2nc(-c2ccco2)n1-c1ccncc1 | nt | 4 | nt | 0.8 | -7 | 4930 | -13
CC12CCC(CC1=NNC(=O)COc1ccccc1Cl)C2(C)C (stereo unspecified) | 7 | nt | 15 | 6.6 | 5 | nt | nt
CC1=C(C(=O)OC(C)C)C(c2cn(-c3ccccc3)nc2-c2cccs2)NC(=O)N1 (stereo unspecified) | -1 | -8 | 3 | 4.1 | 5 | 1977 | 5
COc1cc(C(=O)NCC(=O)NN=C(C)c2ccc3c(c2)CCCC3)cc(OC)c1OC | -4 | nt | 2 | 1.4 | 0 | nt | nt
O=C(N/N=C/c1ccc(Br)s1)c1c[nH]c2ccccc12 | nt | -5 | nt | nt | nt | 1998 | -67
O=C(CSc1nnc(Cc2ccccc2)o1)N1CCOCC1 | 12 | 19 | 15 | 5.5 | 3 | 10970 | -10
O=C(NCc1ccc2c(c1)OCO2)C1CC(c2ccccc2O)=NO1 (stereo unspecified) | 7 | 4 | 16 | 4.2 | -5 | 5774 | -10
COc1ccc(-c2ccc(-c3noc(-c4cccs4)n3)c(OC)n2)cc1 | 2 | 7 | -1 | 12 | -21 | 3524 | -23
O=c1[nH]c(C(F)(F)F)nc2ccccc12 | nt | 16 | nt | -0.6 | 3 | 5178 | -5
CCOC(=O)c1c(-c2ccc(C)cc2)cn2ccccc12 | nt | 10 | nt | -2.3 | 60 | 2734 | 12
O=C(OCC(=O)c1ccccc1)C1=NN(c2ccccc2)C(=O)CC1 | -13 | nt | 1 | -1.4 | -2 | 8981 | -4
CCCCCNC(=O)C1CC(=O)OC12CCCCC2 (stereo unspecified) | 6 | 4 | -7 | 4.5 | 12 | 3579 | -18
N#Cc1sc2nc(N3CCCCC3)c3c(c2c1N)CCCC3 | 8 | -2 | 10 | -5.6 | 55 | 2752 | -7
Cc1sc2nc(C)n(N=Cc3ccccc3)c(=O)c2c1C | 14 | nt | 8 | 3.8 | -15 | nt | nt
COc1ccc2c(c1)CCC1C2CCC2(C)C(O)C(=O)CC12 (stereo unspecified) | 7 | nt | 9 | 3.0 | 6 | 3567 | -33
Cc1ccc(-c2noc(CN3C(C)CCCC3C)n2)cc1 (stereo unspecified) | 5 | -8 | 13 | 1.3 | 16 | 4656 | -15
CCN(C(=O)CSc1nnc(-c2ccc(OC)cc2)n1C(C)C)C1CCS(=O)(=O)C1 (stereo unspecified) | 2 | nt | 4 | 3.3 | 4 | 3739 | -11
CNc1nc(N)c(C(=O)C(C)(C)C)s1 | -6 | 0 | 0 | 1.5 | 8 | 9103 | -2
CCn1ccc(C(=O)Nc2ccc(N(C)C(C)=O)cc2)n1 | 13 | 4 | 4 | 6.5 | 3 | 3187 | -34
COc1ccc(N(CC(=O)NCc2ccccc2)S(C)(=O)=O)cc1 | 8 | -8 | 9 | 2.5 | 13 | 2465 | -22
Cc1ccc(N=C2NC(=O)/C(=C/c3cccnc3)S2)cc1C | 3 | -11 | -4 | 2.6 | 4 | 3990 | 0
COc1ccc([N+](=O)[O-])cc1NC(=O)COC(=O)c1ccccc1C(=O)c1ccccc1 | 7 | -8 | 5 | 2.3 | -6 | 1884 | 3
CCc1cccc(Nc2c([N+](=O)[O-])cc(C(=O)N3CC(=O)Nc4ccccc43)cc2[N+](=O)[O-])c1 | -4 | -1 | -2 | 0.7 | 1 | 1971 | -10
Cn1c(SCC(=O)NC2CCCC2)nnc1-c1ccc(S(=O)(=O)N2CCOCC2)cc1 | 16 | 5 | 4 | -0.4 | 1 | 10708 | -18
O=C1CCN(S(=O)(=O)c2cc(C(F)(F)F)ccc2Cl)CC1 | 8 | nt | 4 | 4.1 | 2 | 3590 | -9
CCCN=Cc1c(CCC)[nH]n(-c2nc3ccccc3s2)c1=O | 0 | 5 | 1 | 8.7 | 9 | 5179 | 8
